# AID504770 – growth inhibition of E. coli YBA685, primary screen, V. cholerae RctB inhibitors; E. coli YBA685 rctB-dependent plasmid, OD600 growth, 3 h; stronger effect = lower value; z-score (no concentration beside the values); actives 0.27% (n = 130,000); AID 504770, 2011;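 active means z-score under -2 on both plates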;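 further: wells of about 30 µL received 100 nL stock; score is relative to mean and SD of the test wells; the first replicate is given; strong numbers were not always called active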
# CapD inh – Bacillus anthracis CapD inhibitors, primary screen, biochemical, fluorescence intensity. purified CapD enzyme, fluorescence intensity read-out; stronger effect = lower value; some hits fall short of the stated cut. z-score (test concentration not listed). actives 0.23% (n = 140,000);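 active means z-score under -4 in either of two replicates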;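 further: stock transfer was 100 nL into about 40 µL; score is relative to mean and spread of the plate; one replicate is shown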
# An asterisk follows results filed as active; i = inactive; x = not tested or not shown. An unsorted share of the library. About 0.37% of those tested had a hit in this group.
SMILES,AID504770,CapD inh
CC(C)N(Cc1nnc(-c2ccccc2)o1)C(=O)CN1C(=O)COc2ccccc21,1.2,x
Cc1sc2ncnc(SCC(=O)NC(Cc3ccccc3)C(=O)O)c2c1C (centres undefined),x,0.21
CC1CCN(C(=O)C(C)Sc2nnc3c(n2)[nH]c2ccccc23)CC1 (centres undefined),1.9,x
COC(=O)C1C(=O)Oc2ccc3ccccc3c2C1C(C)(C)C(=O)OC (centres undefined),-1.1,-0.42
CCN1C(=O)CSC1=NC12CC3CC(CC(C3)C1)C2,-0.1,0.79
Fc1cccc(Cl)c1CSc1nnc(-c2ccc(C(F)(F)F)cc2)o1,x,-1.2
O=C(O)CCC(=O)c1ccc2ccccc2c1,-0.45,11
O=C(CN1CSCC1=O)Nc1nc(SCc2ccccc2)ns1,0.05,x
NC[C@@H]1CCCN2CCCC[C@H]12,-1,0.58
N/C(CN1CCSCC1)=N\OCc1c(Cl)cccc1Cl,-0.85,-0.68
Cc1ccc(S(=O)(=O)N(CC(=O)NC2CC2)C2CCCCC2)cc1,0.1,4.4
COC(=O)CSc1nnc(CNC(=O)c2cccs2)n1-c1ccccc1,-0.35,-0.065
N#Cc1c(-c2ccc(F)cc2)cc(-c2ccccc2)nc1SCC(=O)NC1CC1,x,0.72
O=C(O)c1cccc(NS(=O)(=O)c2cc3c4c(cccc4c2)C(=O)NC3=O)c1,-0.95,x
NC(=S)Cc1nc2ccccc2[nH]1,-1.4,x
C/C(N)=C(/C#N)C(=O)CSc1nnc(C(F)(F)F)n1N,-0.85,x
Cc1ccc(NC(=O)N2CCN(c3cnccn3)CC2)cc1,-0.45,2.9
CCCc1cc(=O)[nH]c(/N=C(/NC(=O)c2ccccc2)Nc2ccccc2)n1,-1,-0.21
COc1ccc(C2C3=C(CC(C)(C)CC3=O)Nc3ccccc3N2C(C)=O)cc1COc1ccc(F)cc1 (centres undefined),x,3.6
Oc1ccccc1CN1CCN(Cc2ccccc2O)C1c1c(O)c(Br)cc2oc3c(c12)CCCC3,x,-0.88
COc1ccc(C2=NN(C(=O)CCC(=O)O)C(c3cccs3)C2)cc1 (centres undefined),x,8.4
COc1ccc(N(Cc2cc3cccc4c3n(c2=O)CCC4)C(=O)c2cccs2)cc1,x,0.035
COC(=O)C(C#N)c1ccc(C(F)(F)F)cc1[N+](=O)[O-] (centres undefined),x,-0.37
Cc1cccc(-n2c(N)cc(=O)nc2SC(C)C(=O)Nc2ccccc2)c1 (centres undefined),-0.15,0.18

# Gathered by group: those above with an aryl thioether with sulfur outside any ring
SMILES,AID504770,CapD inh
Cc1sc2ncnc(SCC(=O)NC(Cc3ccccc3)C(=O)O)c2c1C (centres undefined),x,0.21
CC1CCN(C(=O)C(C)Sc2nnc3c(n2)[nH]c2ccccc23)CC1 (centres undefined),1.9,x
Fc1cccc(Cl)c1CSc1nnc(-c2ccc(C(F)(F)F)cc2)o1,x,-1.2
O=C(CN1CSCC1=O)Nc1nc(SCc2ccccc2)ns1,0.05,x
COC(=O)CSc1nnc(CNC(=O)c2cccs2)n1-c1ccccc1,-0.35,-0.065
N#Cc1c(-c2ccc(F)cc2)cc(-c2ccccc2)nc1SCC(=O)NC1CC1,x,0.72
C/C(N)=C(/C#N)C(=O)CSc1nnc(C(F)(F)F)n1N,-0.85,x
Cc1cccc(-n2c(N)cc(=O)nc2SC(C)C(=O)Nc2ccccc2)c1 (centres undefined),-0.15,0.18

# (cont.)
SMILES,AID504770,CapD inh
Brc1cccc(N2Cc3ccccc3C2)c1,-0.7,-0.15
COC(=O)c1ccc(NCN2C(=O)/C(=C\c3cc(OC)c(OC)c(OC)c3)SC2=S)cc1,x,-0.56
CC1(C)CC(=O)c2cc(C(=O)NC(C)(C)C)c(=O)n(-c3ccccc3)c2C1,-0.3,x
N#C/C=C/c1ccc(Cl)cc1Cl,-0.75,0.22
Cc1nnsc1-c1nnc(SCC(=O)N(c2ccccc2)C2CCCCC2)n1C1CC1,0.3,4.6
CCCCN1C(=O)C2C(C(=O)Nc3ccc(C(C)C)cc3)C3C=CC2(O3)C1C(=O)NC1CCCCC1 (centres undefined),x,60
O=C(NOC(=O)c1ccccc1)c1ccccc1,0.4,0.74
CC(C)CCN1C(=O)c2ccc(-c3nc4ccccc4o3)cc2C1=O,-0.8,17
CCc1ccc(NC(=O)N2CCSc3ccccc32)cc1,0.05,-0.46
O=C(CSC1CCCCC1)c1ccccc1F,0.55,2.7
COc1ccc2nc(NNC(=O)C3COc4ccccc4O3)sc2c1 (centres undefined),0.45,x
O=C(OCCCCCCCl)N1CCN(c2ccccc2Cl)CC1,x,-0.6
COC(=O)CSc1nnc(CNC(=O)c2ccccc2OC)n1C,-0.3,0.44
O=C(OCc1ncc(-c2ccccc2)o1)c1cc(=O)[nH]c2ccccc12,1.3,x
Cc1ccc(Cc2cnc(N)s2)o1,-0.05,-0.4
COc1cccc(CN(C)C(=O)c2cc(C)oc2C)c1OC,-0.25,x
Cc1nnc2c3cnn(-c4ccccc4)c3nc(C)n12,0.6,i
Cc1ccc(C(=O)OC(C)C(=O)NC2CCCC2)c(C)c1 (centres undefined),0,x
COC(=O)c1ccccc1OCCCn1c(-c2ccc(Br)cc2)nc2ccccc2c1=O,x,0.06
COc1ccccc1OCCN1CCOCC1,-0.2,0.14
COc1ccc(Cl)cc1NC(=O)CSc1nc2ccccc2o1,x,-0.17
FC(F)(F)c1cccc(-c2ccc(-c3nn4c(-c5ccco5)nnc4s3)o2)c1,0.65,-0.85
COc1cc2ncnc(Sc3ccc(C)cc3)c2cc1OC,x,0.4
O=C1Nc2ccccc2/C1=N/N1C(=O)CNC1=O,-0.65,-2
Cc1cc(=O)n2[nH]c(N3C(=O)c4ccccc4C3=O)nc2n1,1.9,-0.47
CC1(C)SC(=S)N(/N=C/C=C/c2ccc([N+](=O)[O-])o2)C1N(O)C(=O)Nc1cccc(Cl)c1 (centres undefined),x,-1.1
COc1ccc(-c2cc(C(F)(F)F)n3nc(C(=O)NCC4CCCO4)cc3n2)cc1OC (centres undefined),x,0.52
N#Cc1ncn(-c2ccccc2Oc2ccccc2)c1N,-0.1,-0.38
CCOC(=O)C1CCN(S(=O)(=O)c2cccc3nonc23)CC1,x,0.54
C=CCN(CC=C)S(=O)(=O)c1ccc2nc(NC(=O)C(C)C)sc2c1,0.9,-0.83
Cc1ccc2c(c1)NC(C)(C)c1sn(-c3ccc(C)c(Cl)c3)c(=S)c1-2,x,0.17
COC1=C(C2(O)CCCc3c2no[n+]3[O-])CCc2c1no[n+]2[O-] (centres undefined),0.95,-0.025
CC1=C(C(=O)Nc2ccc(Br)cn2)C(c2ccccc2C(F)(F)F)C2=C(CC(C)(C)CC2=O)N1 (centres undefined),x,6.5
O=C(CSc1nccc(=O)[nH]1)c1ccc(Br)cc1,-0.8,x
CC1=CSC2=NC(=O)/C(=C\c3ccc(SCc4ccc(Cl)cc4)o3)C(=N)N12,0.25,-0.34
COc1ccc(C(=O)Oc2ccc(C)cc2/C=C2\Sc3ccccc3C2=O)cc1,x,-0.53
N#Cc1ccsc1NC(=O)CSC1CCCCC1,0.75,-0.3
O=C(Cn1ncn2c(cc3ccccc32)c1=O)NCCc1ccccc1,-0.8,0.59
CN(C)CCCNc1ncnc2sc3c(c12)CCCC3,1.2,0.43
CN(C)CC#CCN1CCCC2(CCOC(C)(C)C2)C1 (centres undefined),-0.1,0.52
FC(F)(F)c1cc(C(F)(F)F)c2ccc3nnc(-n4cccc4)n3c2n1,x,0.15
CCSc1nnc2c(n1)OC(C1CC=C(C)CC1C)Nc1ccccc1-2 (centres undefined),x,-0.18
CCCn1c(SC(C(=O)c2ccccc2)c2ccccc2)n[nH]c1=O (centres undefined),-0.4,x
Cc1ccc(N2CC(C(=O)NC3CC3)CC2=O)cc1Cl (centres undefined),-0.35,x
O=C(CN(c1cccc([N+](=O)[O-])c1)S(=O)(=O)c1ccccc1)N1CCN(Cc2ccccc2)CC1,x,-0.46
CC(C)(C)c1ccc(C(=O)NCc2nnc(SCC(=O)Nc3ccc4c(c3)OCO4)o2)cc1,0.05,x
COc1cc(C=Nc2ccc(F)cc2)cc(OC)c1OC,x,0.74
CCN1CCN(c2nc(C)nc3sc4c(c23)CCC4)CC1,0.15,1.1
Oc1ccc(-c2cnc3ccncc3n2)cc1,-1.4,-0.48
N#CC1CCN(CCS(=O)(=O)c2ccc(Cl)cc2)CC1,-0.8,0.46
Cc1[nH]n(-c2ccccc2)c(=O)c1/C=N/NC(=O)c1ccccc1,0,x
CCN(C(=O)c1cccc2c1SCCC2=O)c1ccccc1F,-0.25,0.76
S=c1[nH]nc(-c2ccncc2)n1C1CCCC1,1.1,-0.94
CN(C)c1ccc(NC(=S)N=P(c2ccncc2)(N(C)C)N(C)C)cc1,1.4,x
O=C(/C=C/C(=O)c1ccccc1)c1ccccc1,-1.5,x
Clc1ccc(-c2nnnn2Cc2ccccc2)cc1,-0.7,-0.69

# (next part)
SMILES,AID504770,CapD inh
CCCCc1c(O)c2cccc3c4ccccc4n(c1=O)c23,0.9,18
NC(=O)c1sc(-c2ccsc2)cc1NC(=O)C(F)(F)F,-0.5,48
O=C(CCN1CCc2ccccc2C1)Nc1ccc2c(c1)CCC2,-0.95,-0.13
CCOC(=O)c1sc(C)c2c(=O)[nH]c(-c3ccc(SC)cc3)nc12,-0.8,-0.28
Cc1ccc(Sc2sc(=O)n(C)c2S(=O)(=O)c2ccc(C)cc2)cc1,1.7,0.055
O=S(=O)(c1ccc2c(c1)Cc1cc(S(=O)(=O)N(CCO)CCO)ccc1-2)N(CCO)CCO,x,0.35
CCN(CC)c1ncnc2sc(C(=O)N3CCN(c4ccccc4F)CC3)c(C)c12,x,0.54
Cn1c(=O)cc(SCC(=O)Nc2cccnc2)c2ccccc21,0.3,-1.9
Fc1ccc(C2N(Cc3ccccc3)CCN2Cc2ccccc2)cc1,x,-0.26
O=C(NCC1CCCN1S(=O)(=O)c1ccccc1)Nc1ccccc1 (centres undefined),-0.7,x
COc1c(Cl)cccc1-c1cn2ccccc2n1,0.35,60
OCc1ccc(-c2ccc(Cl)cc2)o1,0.1,0.065
O=C(Nc1ccc(F)cc1)C1CC(=O)N(CCc2ccccc2)C1 (centres undefined),0.8,x
C=CCCN(C(C)C)S(=O)(=O)c1ccc(C)cc1,0.3,-0.21
O=C(Nc1nnc(C2CC2)o1)c1ccc(S(=O)(=O)N2CCCCC2)cc1,-1.1,x
CC(C)(C)P(=NC(=S)Nc1ccccc1)(N1CCOCC1)N1CCOCC1,-0.65,x
CN1C/C(=C\c2ccc(O)cc2)C(=O)/C(=C/c2ccc(O)cc2)C1,1,-1.4
CC(C)c1ccc(NC(=O)c2ccccc2N)cc1,x,57
CCOC(=O)N1CCN(C(=O)CN(c2cc(Cl)ccc2OC)S(=O)(=O)c2ccc(C)cc2)CC1,x,-0.26
CCOC(=O)Cc1ncccc1C(=O)Nc1ccc(Oc2ccccc2)cc1,x,-0.94
COc1ccc(C2C3(C#N)C(N)=NC4(OCCO4)C23C#N)cc1OC (centres undefined),-0.05,0.2
CC(=O)Nc1ccc(S(=O)(=O)N2CCN(C/C=C/c3ccccc3)CC2)cc1,-0.55,0.09
CCOC(=O)C(C)Sc1nc(-c2ccc(OC)cc2)nc2c1c(=O)n(C)c(=O)n2C (centres undefined),-1,0.16
CC1=CCC2(CC1)COC(C)(CC(=O)NN)OC2 (centres undefined),2.3,x
OCCSc1nnc(-c2cc3ccccc3o2)n1-c1ccccc1,-0.95,5.3
CC(=O)C12c3ccccc3C(c3ccccc31)C1C(=O)N(c3ccc(C(=O)O)cc3)C(=O)C12 (centres undefined),x,-0.69
O=C(CSc1nnnn1Cc1ccccc1)c1ccccc1,-0.05,x
CC(C)N(C(=O)COc1ncnc2ccccc12)c1ccccc1,-0.4,0.25
CCOc1ccc(-n2cc(-c3ccccc3)c3c(NC(C)C)ncnc32)cc1,-0.1,0.45
O=c1c(C=NCc2ccccc2)c(O)n(-c2ccccc2)c(=S)n1-c1ccccc1,x,-0.02
O=C(CN1CCOCC1)NN1CC(=O)N(c2ccccc2)CC1=O,-0.5,-0.62
COc1cccc(NCCC#N)c1,1,x
CC1CCN(S(=O)(=O)c2ccc(CN3C(=O)c4cccnc4C3=O)cc2)CC1,0.45,-0.16
O=C(CCCSc1nnc(Nc2ccccc2F)s1)N1CCOCC1,-1.5,x
Cc1nc(C(F)(F)F)ccc1-c1nnc(SCc2ccc(OC(F)(F)F)cc2)o1,0.3,1.1
CC(=O)Nc1ccc(-c2nn3c(C)nnc3s2)cc1,-0.75,x
O=C(Cn1c(COc2ccc(Cl)cc2)nc2ccccc21)NCc1ccco1,-0.65,x
CC(Sc1ccccc1)C(=O)N/N=C/c1cccnc1 (centres undefined),1.1,x
CC1CCCC(NC(=O)c2ccc3c(SCC(=O)O)c4c(nc3c2)CCC4)C1C (centres undefined),-0.55,-0.81
ClCc1nc2ccccc2[nH]1,0.6,1.3
CC1=C2C(=CO[C@H](C)[C@H]2C)C(=O)C(C(=O)O)=C1O,0.15,1.3
O=C(NCC1OCCc2ccccc21)c1ccccc1Br (centres undefined),0.5,0.53
Cc1nc(N2CCCCC2)c2c(C)c(C(=O)O)sc2n1,x,0.53
CCCNC(=S)N1CCN(S(=O)(=O)c2ccc(OC)c(OC)c2)CC1,-0.45,0.36
COc1ccc2c(c1)c(C(=O)O)c(C)n2C1CCCCC1,-0.1,x
S=c1n(CN2CCCCC2)c2ccccc2n1CN1CCCCC1,0.25,x
